# Assay outcomes from PubChem BioAssay.
# Autofluor counter: flagged as autofluorescent in microsphere protease counterscreen; fluorescence intensity (test concentration not listed); compound autofluorescence counterscreen, microsphere flow cytometry; hits give high values; AID 624483; hit rate 3.1% among 360,000;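 active = at least 3 SD above the mean of all compounds, about 16000 in these data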;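 note: 100 nL of 1 mM stock went into each well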
# RN4220 kill: growth inhibition of S. aureus RN4220, primary screen, OD600. inhibition, % (no concentration beside the values). AID 1259311, 2017. 16 h. hit rate 0.33% among 330,000;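 active = z-score of -3 or lower and OD600 up to 0.18 on both plates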;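 note: plate controls were untreated cells for no effect and reference antibiotic for full effect; stock transfer was 100 nL into about 80 µL; one replicate is shown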
# PrP UTR inh: inhibition of PrP 5' UTR reporter expression; cell-based PrP 5' UTR mRNA reporter, plate reader; inhibition, % (no concentration beside the values); hit rate 0.35% among 340,000; AID 488862, 2010;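 active = every replicate at 50% or more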;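 note: 0 = median of the neutral control wells; tested in H4 reporter cells; numbers are from one replicate; inactives centre near -14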
# ugtP null kill: growth inhibition of ugtP-null S. aureus, primary screen, RN4220 ugtP deletion, OD600 | 16 h; some inactives read as strong as hits | growth inhibition, % (no concentration beside the values) | hit rate 0.54% among 330,000 | AID 1259309, 2017;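 active = z-score under -3 and OD600 up to 0.15 on both plates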;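 note: plate controls were untreated wells for no effect and antibiotic for full effect; wells of about 80 µL received 100 nL stock; the first replicate is given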
# BJeLR lethal: MLPCN primary cell-based screen for lethality selective to Ras in HRASV12 cells. BJeLR (HRASV12) viability, CellTiter-Glo ATP luminescence, 48 h; reference of the scale not given here. inhibition, % (concentration not given with the values). AID 1554, 2009. hit rate 0.17% among 300,000;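 active = replicate mean above 50%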;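 note: 50 nL library stock added to about 25 µL; numbers are from one replicate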
# Mtb hypoxia inh: PubChem AID 1159583 | M. tuberculosis hypoxia-regulated fluorescent reporter, fluorescence | hit rate 0.1% among 300,000 | fluorescence inhibition, % (concentration not given with the values);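 active = 35 to 45% if threefold the growth effect, above 45% if 1.5-fold the growth effect; inactive = the rest, general growth blockers included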;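 note: wells of about 50 µL received 100 nL stock; 0% = vehicle wells and 100% = reference inhibitor wells; whole bacteria with a GFP reporter of the hypoxia response; strong numbers were not always called active; many hits fall short of the cut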
# Mtb hypoxia inh growth: second read-out of Mtb hypoxia inh, no call of its own (marks repeat the call); growth inhibition, %; measured here: M. tuberculosis growth (absorbance);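 0% = vehicle and 100% = reference antibiotic; read after six days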
# An asterisk follows results filed as active; . = no result given.
1: CCOC(=O)c1[nH]c2ccc(F)cc2c1NC(=O)C(C)N1CCc2cc(OC)c(OC)cc2C1 (stereo unspecified)
2: CCCCc1nc(N2CCOCC2)c(C#N)c2c1CCCC2
3: N#Cc1c(-c2ccccc2)nc2n(c1=O)CCS2
4: CC(C)C1=C2OC(N)=C(C#N)C(C#N)=C2C(C)CC1 (stereo unspecified)
5: CCCn1nnc(NC(=O)c2cc3ccccc3o2)n1
6: CCOc1ccc(N2C(=O)c3ccccc3C2O)cc1 (stereo unspecified)
7: Cc1ccc(S(=O)(=O)Cc2ccc(C(=O)N3CCCCCC3)o2)cc1
8: CCOCCCNC(=O)c1ccc(N2CC3CC(C2)c2cccc(=O)n2C3)c(NC(=O)Nc2cccc(OC)c2)c1 (stereo unspecified)
entry no.,1,2,3,4,5,6,7,8
ugtP null kill,-2,71,3,-11,3,-8,7,9
RN4220 kill,-1.4,5.6,3.2,8.9,3.9,-14,-0.7,5.2
Autofluor counter,3224,4929,4067,22045*,11525,6458,4927,4615
PrP UTR inh,-17,-12,-3,-29,-76,-52,-17,-12
Mtb hypoxia inh growth,13,14,3,-1,-6,10,.,-6
BJeLR lethal,-4,3,5,-11,5,17,9,0
Mtb hypoxia inh,5,23,19,1,-4,2,.,-2

9: O=C(CN1C(=O)CC(c2ccco2)Sc2ccccc21)Nc1ccc2c(c1)OCCO2 (stereo unspecified)
10: O=C(NCc1cccs1)c1ccc(Cl)s1
11: CC1=C(C(=O)NCCN2CCN(C)CC2)C2(CCC(C)CC2)OC1=O (stereo unspecified)
12: CCOC(=O)C1(Cc2cccc(Cl)c2)CCCN(C(=O)c2ccoc2C)C1 (stereo unspecified)
13: COc1cc(C(=O)Nc2cc(S(=O)(=O)N3CCOCC3)ccc2N2CCOCC2)ccc1OC(F)F
14: CC(C)(C)Nc1nc(-c2ccccn2)nc2ccccc12
15: Oc1ccc(Br)cc1C=Nn1c(-c2ccccc2)n[nH]c1=S
16: O=C1COc2ccc(C(=O)COC(=O)c3cc(S(=O)(=O)N4CCOCC4)ccc3F)cc2N1
entry no.,9,10,11,12,13,14,15,16
ugtP null kill,-9,4,11,0,0,.,5,-1
RN4220 kill,-1.0,11,5.5,7.5,4.7,.,5.4,1.7
Autofluor counter,13764,24555*,4178,5848,3785,3388,.,6171
PrP UTR inh,-7,-8,-10,-15,-14,-25,.,-3
Mtb hypoxia inh growth,-1,.,4,-3,53*,.,5,2
BJeLR lethal,-3,10,-3,10,.,32,.,4
Mtb hypoxia inh,8,.,3,6,23*,.,10,4

17: O=C(c1ccc(Br)o1)N1CCCc2ccccc21
18: CCOC(=O)N1CCC(NC(=O)c2sc(-n3cccc3)nc2C)CC1
19: Cc1ccc(NC(=O)CN(C)Cc2nc3c(Br)cc(Br)cc3c(=O)[nH]2)cc1
20: O=C(NCCCC1CCCC1)C1CCC(=O)N(Cc2cccc(F)c2)C1 (stereo unspecified)
21: CC(C)CCNC(=O)CCn1nc(-c2ccc(Cl)cc2)ccc1=O
22: COc1cc(CNc2ccc3[nH]c(=O)[nH]c3c2)ccc1OCC(=O)NC(C)(C)C
23: CCOc1cc(/C=N/N2CCOCC2)ccc1OCc1ccc(C(=O)OC)o1
24: N#C/C(C(=O)Nc1ccc(Cl)cc1)=C(/S)Nc1ccccc1
entry no.,17,18,19,20,21,22,23,24
ugtP null kill,4,-1,-4,3,7,9,.,.
RN4220 kill,7.6,-11,9.3,-3.3,4.2,1.4,.,.
Autofluor counter,3221,2871,4399,5063,4108,3156,3255,5367
PrP UTR inh,-2,-18,-23,-24,-20,13,1,-36
Mtb hypoxia inh growth,.,5,1,1,3,1,.,.
BJeLR lethal,-3,1,15,-21,-2,-10,-15,1
Mtb hypoxia inh,.,16,-6,-1,-1,0,.,.

# 5 compounds from above, arranged by number of heavy atoms, smallest number first:
24: N#C/C(C(=O)Nc1ccc(Cl)cc1)=C(/S)Nc1ccccc1
21: CC(C)CCNC(=O)CCn1nc(-c2ccc(Cl)cc2)ccc1=O
20: O=C(NCCCC1CCCC1)C1CCC(=O)N(Cc2cccc(F)c2)C1 (stereo unspecified)
19: Cc1ccc(NC(=O)CN(C)Cc2nc3c(Br)cc(Br)cc3c(=O)[nH]2)cc1
22: COc1cc(CNc2ccc3[nH]c(=O)[nH]c3c2)ccc1OCC(=O)NC(C)(C)C
entry no.,24,21,20,19,22
ugtP null kill,.,7,3,-4,9
RN4220 kill,.,4.2,-3.3,9.3,1.4
Autofluor counter,5367,4108,5063,4399,3156
PrP UTR inh,-36,-20,-24,-23,13
Mtb hypoxia inh growth,.,3,1,1,1
BJeLR lethal,1,-2,-21,15,-10
Mtb hypoxia inh,.,-1,-1,-6,0

# The list continues.
25: O=C(O)C1CCN(S(=O)(=O)c2ccc(N3CCC(O)CC3)c([N+](=O)[O-])c2)CC1
26: CCOC(=O)c1sc(=S)n(CC)c1NC(=O)c1ccccc1
27: O=C(CCc1ccc(S(=O)(=O)NCc2ccccc2)cc1)NCc1ccc2c(c1)OCO2
28: CC(C)c1ccc(CN2CCC(C(=O)NCc3cccnc3)CC2)cc1
29: COc1cccc(NC(=O)COC(=O)CCCc2c[nH]c3ccccc23)c1
30: CC(C)c1ccc(OCCCCN2CCCCC2)cc1
31: CCC1S/C(=C(\C#N)C(=O)NCc2ccco2)N(c2ccc(Br)cc2)C1=O (stereo unspecified)
32: COCCn1c(Sc2nc(C)cs2)nc2c1c(=O)[nH]c(=O)n2C
entry no.,25,26,27,28,29,30,31,32
ugtP null kill,6,6,-4,6,1,11,-1,5
RN4220 kill,4.1,4.4,4.4,-2.4,2.0,-0.5,4.1,2.4
Autofluor counter,5702,6199,10926,4762,22839*,3191,2790,3371
PrP UTR inh,1,.,-38,0,-31,-26,-14,-14
Mtb hypoxia inh growth,-4,1,9,3,5,7,.,2
BJeLR lethal,8,6,3,-1,4,3,-14,-10
Mtb hypoxia inh,1,5,6,7,1,11,.,6

33: Cc1cc(C(=O)COC(=O)c2ccc(O)cc2)c(C)n1CC(F)(F)F
34: CC(C)CCNC(=O)C1CCC(=O)N1C(C)C (stereo unspecified)
35: COc1cc(NC(=O)C2CCN(S(=O)(=O)c3cccc4nonc34)CC2)cc(OC)c1
36: Cc1cc(C)n2c(SCC(=O)NC3CCCCC3C)nnc2n1 (stereo unspecified)
37: Cc1cccc(C)c1NC(=O)CCCSc1nnnn1C
38: COc1ccc(C=NNC(=O)c2ccccc2OCc2ccccc2)c(OC)c1
39: O=Cc1cn(CC(O)Cn2cc(C=O)c3ccccc32)c2ccccc12
40: Cc1nnc(SCC(=O)Nc2sccc2C(N)=O)n1Cc1ccccc1
entry no.,33,34,35,36,37,38,39,40
ugtP null kill,3,11,1,1,1,3,-1,-1
RN4220 kill,5.3,1.6,-0.3,1.9,1.3,7.4,2.4,1.2
Autofluor counter,4232,11364,2820,3738,10040,.,4334,5801
PrP UTR inh,-74,.,-15,-30,-19,.,-16,-3
Mtb hypoxia inh growth,-4,9,.,4,7,5,2,15
BJeLR lethal,.,4,-3,9,-1,.,2,-7
Mtb hypoxia inh,-7,5,.,4,8,9,5,3

41: COc1ccccc1NC(=O)C(CC(C)C)NC(=O)C1CCCCC1 (stereo unspecified)
42: NS(=O)(=O)c1ccc(CNC(=O)c2ccc(Cl)c(S(=O)(=O)NCc3ccccc3)c2)cc1
43: O=c1c2c([N+](=O)[O-])cc([N+](=O)[O-])cc2sn1Cc1ccccc1
44: CC(=O)Nc1ccc(S(=O)(=O)Nc2cc(C)c(-n3nc4ccccc4n3)cc2O)cc1
45: Cc1ccc(NC(=O)CC(=O)Nc2ccc(C)cc2C)c(C)c1
46: COc1ccc(C2(C)NC(=O)N(CC(=O)c3ccc4c(c3)OCO4)C2=O)cc1 (stereo unspecified)
47: CC(C)Oc1ccc(C2(C#N)CC[N+](C)(C)CC2)cc1
48: CCNC(=S)Nc1scc(-c2ccccc2)c1C(=O)OCC
entry no.,41,42,43,44,45,46,47,48
ugtP null kill,-1,1,.,-15,1,1,1,21
RN4220 kill,1.2,3.9,.,5.7,-2.3,-1.7,-0.9,15
Autofluor counter,10139,7719,3488,5074,3634,5150,2577,2173
PrP UTR inh,-15,-5,-17,-20,-12,-12,-27,-20
Mtb hypoxia inh growth,3,-1,.,9,1,5,2,0
BJeLR lethal,-4,.,3,1,10,-14,-2,-5
Mtb hypoxia inh,-4,-1,.,-1,4,1,-2,3

49: O=C(NCc1ccccc1Cl)c1ccc(-c2ccccc2)cc1
50: CCCCCc1nnc(NC(=O)OCCC)s1
51: CCOc1ccc(N(CC(=O)Nc2ccc(C)c(C)c2)S(=O)(=O)c2c(C)noc2C)cc1
52: COc1cc(OC)cc(C(=O)N2CCC(n3c(C)nc4cc(F)ccc43)CC2)c1
53: O=[N+]([O-])c1cccc(/C=N/N=C\c2ccccc2)c1
54: O=C(CSc1nnnn1C1CCCC1)Nc1cccc(NC(=O)c2ccco2)c1
55: CN(Cc1cccs1)C(=O)CN1CCN(S(=O)(=O)c2ccc3c(c2)OCCCO3)CC1
56: CCCCCN1CSC(=S)N(Cc2ccccc2)C1
entry no.,49,50,51,52,53,54,55,56
ugtP null kill,15,5,3,3,.,-3,6,15
RN4220 kill,3.2,5.2,1.3,-1.4,.,7.6,3.3,10
Autofluor counter,1934,4094,5467,4129,4062,10305,5059,2560
PrP UTR inh,-27,-38,-7,2,-30,-28,-18,-25
Mtb hypoxia inh growth,4,.,.,2,.,4,-2,5
BJeLR lethal,5,-4,-1,-6,1,-2,.,-11
Mtb hypoxia inh,12,.,.,-1,.,1,5,0

57: COc1ccc(CC(=O)Nc2ccc(S(=O)(=O)N3CCC(C)CC3)cc2)c(OC)c1
58: CCC(=NCc1ccco1)c1c(C(F)(F)F)[nH]n(-c2nc3ccccc3s2)c1=O
59: Cc1[nH]c2ccccc2c1Cc1n[nH]c(=S)n1C
60: CCOC(=O)CSc1nc(C(C)C)nc2ccccc12
61: Cc1nn(CC(=O)N2N=C(C(F)F)CC2(O)C(F)F)c(C)c1[N+](=O)[O-] (stereo unspecified)
62: NC(=O)c1cnn2c(-c3cccc(C(F)(F)F)c3)ccnc12
63: Cc1ccc(S(=O)(=O)N2[C@@H](c3ccc(C(C)(C)C)cc3)C(C(=O)O)=CC[C@H]2c2ccc(Cl)c(Cl)c2)cc1
64: Cc1cc(C(=O)COc2ccccc2[N+](=O)[O-])c(C)n1-c1cccc(S(=O)(=O)N2CCOCC2)c1
entry no.,57,58,59,60,61,62,63,64
ugtP null kill,0,-16,-3,14,4,10,95*,-6
RN4220 kill,0.1,0.1,0.3,4.7,3.0,3.0,100*,4.8
Autofluor counter,4356,6635,4384,6474,2533,3119,3761,2449
PrP UTR inh,-16,36,-17,-15,-32,3,-25,7
Mtb hypoxia inh growth,7,-1,.,2,11,7,5,4
BJeLR lethal,.,6,4,-22,-5,1,.,0
Mtb hypoxia inh,10,1,.,1,5,6,4,2

65: CC(CC(=O)NCc1ccc(F)cc1)c1ccccc1 (stereo unspecified)
66: CCCCNc1c(N2CCN(C(=O)OCC)CC2)c(=O)c1=O
67: Nc1nnc(Cc2ccccc2)s1
68: O=C(CCCOc1ccc(Br)cc1)NNC(=O)c1ccncc1
69: Cc1ccccc1NCC(=O)N/N=C/c1c[nH]c2ccccc12
70: C(=N\Nc1nc2ccccc2[nH]1)/c1ccncc1
71: NC(=O)CN1CCN(S(=O)(=O)c2ccc(Cl)cc2)CC1
72: CCN1C(=O)/C(=C2\SC(=S)N(NC(=O)c3cccnc3)C2=O)c2ccccc21
entry no.,65,66,67,68,69,70,71,72
ugtP null kill,14,18,10,4,.,.,-5,-6
RN4220 kill,3.4,4.9,1.6,3.6,.,.,-0.9,6.2
Autofluor counter,3572,5207,4081,4731,2519,4575,4930,3867
PrP UTR inh,-15,-6,-20,-11,-26,-28,-38,.
Mtb hypoxia inh growth,3,6,5,.,.,.,16,1
BJeLR lethal,2,-2,7,0,7,13,1,6
Mtb hypoxia inh,6,0,5,.,.,.,-7,-7

73: COc1ccc(C(=O)N[C@H](C(=O)NCc2ccc(C)cc2)C(C)C)cc1
74: O=C(Nc1ccccc1)c1ccc(S(=O)(=O)N(CCO)CCO)cc1
75: O=C(NC1CCN(S(=O)(=O)c2ccc(F)cc2)CC1)C1CCCCC1
76: CCOC(=O)c1c(C)n(C)c2cc(Br)c(OC)cc12
entry no.,73,74,75,76
ugtP null kill,2,0,1,2
RN4220 kill,4.0,0.7,-3.9,6.0
Autofluor counter,3541,4639,3505,4129
PrP UTR inh,-1,-31,-15,-37
Mtb hypoxia inh growth,8,.,-1,1
BJeLR lethal,4,-2,-12,3
Mtb hypoxia inh,4,.,-6,11
